# KAT2A inh: qHTS Assay for Inhibitors of GCN5L2. Potency, µM (highest dose often 58.9 µM), for inactives: at the top dose activity change, negative = inhibition, most hits filed as inhibitors. AID 504327, 2011. GCN5L2 HAT assay, ThioGlo1 CoA-SH fluorescence. 0.21% of 390,000 active; active = well fitted inhibition curve with a large enough effect; inconclusive = small, poorly fitted or top-dose-only effect, or another doubt; inactive = no such curve, though single readings can be large or run the other way
# Target sequence (Q92830 whole entry, looked up): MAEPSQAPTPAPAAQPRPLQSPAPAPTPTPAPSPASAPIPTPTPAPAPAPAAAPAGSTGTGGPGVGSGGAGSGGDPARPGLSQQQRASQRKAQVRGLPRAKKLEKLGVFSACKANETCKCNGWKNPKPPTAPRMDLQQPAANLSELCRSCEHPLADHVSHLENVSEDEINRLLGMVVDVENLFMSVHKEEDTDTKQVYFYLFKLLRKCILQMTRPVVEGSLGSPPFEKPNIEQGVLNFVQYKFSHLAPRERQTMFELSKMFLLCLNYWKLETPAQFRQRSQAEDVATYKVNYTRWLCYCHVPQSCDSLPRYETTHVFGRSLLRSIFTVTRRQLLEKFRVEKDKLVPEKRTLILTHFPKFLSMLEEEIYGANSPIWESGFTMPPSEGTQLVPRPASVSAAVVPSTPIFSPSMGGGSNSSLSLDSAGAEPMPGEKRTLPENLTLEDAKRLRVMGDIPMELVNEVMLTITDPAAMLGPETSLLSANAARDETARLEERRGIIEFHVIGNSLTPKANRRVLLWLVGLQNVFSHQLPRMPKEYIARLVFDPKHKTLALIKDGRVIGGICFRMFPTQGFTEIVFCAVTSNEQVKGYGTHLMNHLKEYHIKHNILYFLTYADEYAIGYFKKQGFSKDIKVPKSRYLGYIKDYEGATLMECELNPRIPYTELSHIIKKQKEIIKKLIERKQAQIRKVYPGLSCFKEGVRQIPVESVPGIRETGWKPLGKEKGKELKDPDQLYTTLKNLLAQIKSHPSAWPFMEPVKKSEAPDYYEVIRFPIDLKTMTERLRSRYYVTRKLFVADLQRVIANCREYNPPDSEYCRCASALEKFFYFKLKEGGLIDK
#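 Enzyme at 20nM final was mixed with library compounds for 15 min at room temperature. Peptide H3(1-25) at 75uM, acetyl-CoA at 70uM and ThioGlo1 at 50uM were then added. Plates were read immediately and after 20 min (Ex340nm/Em540nm).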
# An asterisk follows results filed as active; ? = inconclusive; & = joins results of further samples; [ ] = dose if it differs, or a comment. % is set by controls: 0 for no effect and ±100 for the full control effect; potency is the fitted concentration of half-maximal effect. The list is partial, and most or all hits are left out here.
SMILES,KAT2A inh
COC(=O)c1ccccc1S(=O)(=O)N(Cc1cc2ccc(OC)cc2[nH]c1=O)CC1CCCO1 (stereo unspecified),3.6%
C=CC[C@@H](CC(=O)N(CCO)Cc1ccccc1)C(=O)N[C@H](COC(=O)[C@@H](CC=C)CC(=O)OC(C)(C)C)c1ccccc1,-7.4%
COc1cc(Br)ccc1C1C(C(=O)Nc2ccc(C)cc2C)=C(C)Nc2nnnn21 (stereo unspecified),4.4%
COc1ccc(Cn2c(=O)[nH]c3cc(OC)c(OC)cc3c2=O)cc1,-6.4%
CC(C)(C)c1ccc(C(=O)Nc2cc(-c3nc4ccccc4o3)ccc2Cl)cc1,-7.2%
CCn1c(SCC(=O)NC2CC2)nnc1-c1cccc(OC)c1,?
CCOC(=O)C1CCN(S(=O)(=O)c2ccc(-c3ccc(=O)[nH]n3)o2)CC1,-1.1%
Cc1cccc(C(=O)Oc2coc(CSc3nnc(NC(=O)C4CC4)s3)cc2=O)c1,-11.5%
CN(c1ccccc1)c1nc(N)c([N+](=O)[O-])c(NCc2ccccc2)n1,-9.4%
CCOc1ccc(C(=O)N/N=C/c2ccccc2[N+](=O)[O-])cc1,-6.7%
Cc1nnc(SCC(=O)NCC2CCCO2)n1-c1ccccc1 (stereo unspecified),-0.3%
CCOC(=O)N1CCC(c2[nH][nH]c(=O)c2C)CC1,-9.1%
CC1(C)S[C@@H]2[C@H](NC(=O)COc3ccccc3)C(=O)N2[C@H]1C(=O)O (tested in a mixture with another compound),5.3%[21.4 µM]
CCn1cc(CNC(=O)/C=C/c2cnn(C)c2)c(C)n1,-7.9%
COC(=O)c1ccc(C(=O)OC)c(NC(=O)COC(=O)C2CC2C)c1 (stereo unspecified),0.6%
O=C(NC1CCN(Cc2ccccc2)CC1)c1ccc(Cn2c(=O)c3ccccc3n(Cc3cccc(F)c3)c2=O)cc1,-3.5%
O=C(Cn1c(=O)oc2ccccc21)Nc1ccc(S(=O)(=O)N2CCCCC2)cc1,1.2%
CC1(C)C(=O)Nc2ccccc2N1C(=O)CSc1nnc2c(Cl)cc(Cl)cn12,1.6%
COc1cccc(NS(=O)(=O)c2ccc3c(c2)n(C)c(=O)n3C)c1,-8.0%
Nc1nc(N)nc(-c2ccccc2)n1,-1.4%

# Some of these compounds in order of the KAT2A inh value, high to low.
Molecule,KAT2A inh
Cc1nnc(SCC(=O)NCC2CCCO2)n1-c1ccccc1 (stereo unspecified),-0.3%
COc1cccc(NS(=O)(=O)c2ccc3c(c2)n(C)c(=O)n3C)c1,-8.0%
CCOC(=O)N1CCC(c2[nH][nH]c(=O)c2C)CC1,-9.1%

# (continued)
SMILES,KAT2A inh
CCC(C)NC(=O)C1CC(c2cccc(OC)c2)=NO1 (stereo unspecified),-1.4%
CCS(=O)(=O)N1Cc2ccccc2CC1C(=O)OCC(=O)Nc1ccc(SC(F)F)cc1 (stereo unspecified),-6.7%
O=C(N/N=C/c1ccc2c(c1)OCO2)C(=O)N1CCCC1,-2.5%
Cn1c(COc2ccc(Cl)cc2)nc2ccccc2c1=O,-3.5%
CNC(=O)c1ccc(CNC(=O)OCc2ccccc2)cc1,-5.6%
CC(C(=O)Nc1ccccc1-c1ccccc1)N1CCN(S(=O)(=O)c2ccccc2)CC1 (stereo unspecified),5.3%
CCCCc1ccc(CC(=O)O)cc1,-1.7%
CC1CCCCN1CCCNC(=O)Cn1c(=O)c2cccn2c2ccccc21 (stereo unspecified),-16.4%
CCOC(=O)c1ccccc1NC(=O)COc1ccccc1-c1nnc(-c2ccccc2)o1,-11.0%
CC(=O)C1=NN(c2ccccc2)C(c2ccc3c(c2)OCO3)N1c1ccc(N2CCOCC2)cc1 (stereo unspecified),-8.6%

# 3 structures out of the list, sorted by length of the SMILES, low to high:
SMILES,KAT2A inh
CCC(C)NC(=O)C1CC(c2cccc(OC)c2)=NO1 (stereo unspecified),-1.4%
O=C(N/N=C/c1ccc2c(c1)OCO2)C(=O)N1CCCC1,-2.5%
CCOC(=O)c1ccccc1NC(=O)COc1ccccc1-c1nnc(-c2ccccc2)o1,-11.0%

# Taken from the results shown, 7 compounds:
SMILES,KAT2A inh
O=C(N/N=C/c1ccc2c(c1)OCO2)C(=O)N1CCCC1,-2.5%
Cn1c(COc2ccc(Cl)cc2)nc2ccccc2c1=O,-3.5%
CNC(=O)c1ccc(CNC(=O)OCc2ccccc2)cc1,-5.6%
CC(C(=O)Nc1ccccc1-c1ccccc1)N1CCN(S(=O)(=O)c2ccccc2)CC1 (stereo unspecified),5.3%
CCCCc1ccc(CC(=O)O)cc1,-1.7%
CC1CCCCN1CCCNC(=O)Cn1c(=O)c2cccn2c2ccccc21 (stereo unspecified),-16.4%
CCOC(=O)c1ccccc1NC(=O)COc1ccccc1-c1nnc(-c2ccccc2)o1,-11.0%

# Next compounds:
SMILES,KAT2A inh
COC(=O)CNC(=O)CN1C(=O)N(c2ccccc2)C(N(O)C(=O)Nc2ccccc2)C1(C)C (stereo unspecified),7.5%
Cc1c(-n2cc(C(=O)c3cc(Br)ccc3O)cc(C#N)c2=O)c(=O)n(-c2ccccc2)n1C,-1.8%
CC(C)Nc1ccccc1,-23.7%
Cc1cccc(NC(=O)C2CCN(c3nnc(-n4c(C)ccc4C)s3)CC2)c1C,-2.0%
Cc1ccc(OCC2Cn3c(nc4c3c(=O)[nH]c(=O)n4C)O2)cc1 (stereo unspecified),0.4%
CC1(C)CC(=O)C(C2c3ccccc3S(=O)(=O)c3ccccc32)C(=O)C1,0.0%
COc1cccc(NS(=O)(=O)c2cc3c4c(c2)CCC(=O)N4CCC3)c1,1.2%
Cc1cc(=O)[nH]c2nnc(SCc3ccccc3F)n12,-0.8%
CCOc1ccc(-c2cn3c(n2)sc2cc(C(=O)NCCC4=CCCCC4)ccc23)cc1,-4.2%
CC1CCN(C(=O)CSc2nc3ccccc3c(=O)n2Cc2ccc3c(c2)OCO3)CC1,-10.2%

# Molecules shown so far that contain two or more sulfur atoms:
SMILES,KAT2A inh
Cc1cccc(C(=O)Oc2coc(CSc3nnc(NC(=O)C4CC4)s3)cc2=O)c1,-11.5%
CCS(=O)(=O)N1Cc2ccccc2CC1C(=O)OCC(=O)Nc1ccc(SC(F)F)cc1 (stereo unspecified),-6.7%

# Remaining list, next part.
SMILES,KAT2A inh
Cc1c(C)n(C)c2ccc(C(=O)NCCCN3CCN(c4ccc(F)cc4)CC3)cc12,-1.1%
N/C(=N\OC(=O)Cc1ccccc1)c1ccc(Br)cc1,-1.5%
CCCC(C)NC(=O)Cc1ccccc1[N+](=O)[O-] (stereo unspecified),0.2%
Nc1c(Cl)ncnc1N/N=C/c1ccc2ccccc2n1,-6.8%
CN(C)CC[C@@H](c1ccc(Cl)cc1)c1ccccn1,0.8%&-1.3%&-1.5%
COc1cccc(CNC(=O)C(=O)Nc2c3c(nn2-c2ccccc2)CSC3)c1,-12.1%
CCn1c(Cc2cccn2C)nnc1SCC(=O)c1ccc(C)cc1,0.2%
CCc1ccc(-c2nc3ccc(Br)cc3c(C(=O)O)c2C)s1,-7.6%&-0.8%
CC(=O)C1=C(c2ccc(C)cc2)N(C(C)=O)n2c(nnc2-c2ccccc2)S1,-1.5%
COc1cc(C(=S)N2CCOCC2)cc(OC)c1OC(=O)c1cc([N+](=O)[O-])c(C)c([N+](=O)[O-])c1,-4.8%
CC(C)Oc1ccc(C(=O)NCC(c2ccc(N(C)C)cc2)N2CCCC2)cc1 (stereo unspecified),15.4%
COc1ccc2oc(C(=O)N3CCc4ccccc43)c(C)c2c1,-3.2%
CC(Sc1nnc(Cc2cccs2)n1C1CCCCC1)C(=O)N1CCc2ccccc21 (stereo unspecified),-4.6%
COc1ccc(Nc2oc(COc3ccc(Cl)cc3)nc2C#N)cc1,-9.5%
COc1cccc(C2C3=C(CC(C)(C)CC3=O)OC(N)=C2[N+](=O)[O-])c1 (stereo unspecified),-15.3%
Cc1ccnc(NC(=O)c2cccs2)c1,-2.9%
CC(C)(C)OC(=O)N1CCC(c2c(C(=O)O)cnn2-c2ccccc2)CC1,-5.8%
CCCc1cc(=O)oc2cc(C)cc(OCC(=O)Nc3cccnc3)c12,1.6%
O=C(Nc1nc2ccccc2[nH]1)C1CCCO1 (stereo unspecified),-0.4%
CCOCCCN(C(=O)c1ccco1)C(C(=O)NC1CCCC1)c1ccc(OC)cc1 (stereo unspecified),-5.0%
CC(Oc1ccccc1)C(=O)OCC(=O)NC(=O)NCc1ccco1 (stereo unspecified),-4.0%
CN(C)c1nc(N)nc(CSc2nnnn2-c2ccccc2)n1,-2.7%
COc1ccc(C(=O)C2CCN(S(=O)(=O)c3ccc4c(c3)OCCO4)CC2)cc1,?
CN(C)c1ccc(CNC(=O)C2CCCN(S(=O)(=O)c3ccc4c(c3)CCCC(=O)N4)C2)cc1 (stereo unspecified),4.2%
CCCCCC(=O)Nc1ccc(Cc2ccncc2)cc1,-0.6%
CCn1c(C(=O)N2CCC(C(=O)N3CCN(c4cccc(C)c4C)CC3)CC2)cc2sccc21,-14.1%
N#C/C(=C\c1c(Oc2ccccc2Cl)nc2ccccn2c1=O)C(=O)NC1CCS(=O)(=O)C1 (stereo unspecified),-8.0%
Cc1cccc(NC(=O)CSC2=Nc3ccccc3C3=NC(CCC(=O)NCc4ccco4)C(=O)N23)c1 (stereo unspecified),-3.5%
CCOC(=O)c1ccc(NC(=O)CSc2nc3c(c(=O)n2CC)SC(C)C3)cc1 (stereo unspecified),-7.6%
CCOc1cc(CN2CCOCC2)cc(C(C)=O)c1,-1.0%
CCOc1ccccc1NC(=O)N1CCC(NC(=O)C2CCCCC2)CC1,-3.6%
Cc1c(NC(=O)C(C)OC(=O)c2ccc(Br)o2)c(=O)n(-c2ccccc2)n1C (stereo unspecified),4.2%
Cc1cc(NC(=O)CNC(=O)C2CCCCC2)no1,-6.3%
O=C(CSc1ncn[nH]1)N1N=C(c2ccc(Cl)cc2)CC1c1ccco1 (stereo unspecified),-5.3%
O=C(C(=O)N1CCN(C(=O)c2ccco2)CC1)c1c[nH]c2ccccc12,-2.5%
Cc1cccc(N/C(N)=N/c2nc(C)cc(=O)[nH]2)c1,47.5%[activator]
Cc1ccc(CNC(=S)Nc2ccc(OC(F)F)cc2C)cc1,-1.8%
CCOC(=O)c1ccc(NC(=O)c2ccc(CN3C(=O)CCn4nc(C)cc43)cc2)cc1,-7.3%
COc1ccc(/C=C/c2nc(C#N)c(NCCc3ccc(OC)c(OC)c3)o2)cc1OC,-21.8%
Cc1ccccc1NC(=O)CSc1nc(=O)n(CCN2CCOCC2)c2c1CCCC2,-2.1%
COc1ccccc1CN1C[C@@H]2C[C@@H](c3ccc(Cl)cc3)N3CCC[C@@]23C1=O,4.9%
Cc1cccc(/C(N)=N/OC(=O)c2ccc(F)cc2)c1,-5.3%
CC(=O)NC(Cc1ccccc1F)C(=O)NC1CCN(c2ncccc2[N+](=O)[O-])CC1 (stereo unspecified),-12.0%
Cc1cccc(OCc2nc(C#N)c(NCc3ccccc3Cl)o2)c1,-5.0%
COc1ccc(-n2c(SCC(=O)Nc3ccc(NC(C)=O)cc3)nc3c([nH]c4ccccc43)c2=O)cc1OC,-5.8%
CCC(C)Nc1nc(CN2CCOCC2)nc2sc3c(c12)CCC3 (stereo unspecified),-0.3%
CCOc1cc(/C=N/NC(=O)c2ccccn2)ccc1OC(=O)c1ccc(F)cc1,-30.6%
CCOC(=O)N1CCC(NC(=O)CCN2C(=O)COc3ccccc32)CC1,-13.0%
CCOc1c(Br)cc(/C=N\NC(=O)c2ccccc2)cc1OC,-4.3%
C=CCOc1ccc(C(=O)n2cc(C(=O)OC)c3ccccc32)cc1,-6.0%
# Carrying on:
SMILES,KAT2A inh
CCOc1ccc(NC(=O)CSc2nc3c(c(=O)n2-c2ccccc2OC)SCC3)cc1,-27.1%
CCCC1N2CC3([N+](=O)[O-])CN1CC([N+](=O)[O-])(C2)C3(C)C (stereo unspecified),38.8%
Cc1cc(C)c(C(=O)N2CCCC(C(=O)c3cc(F)ccc3F)C2)o1 (stereo unspecified),-0.4%
CC(=O)NN1C(=O)/C(=C/c2ccc(C(C)C)cc2)SC1=S,-23.0%
O=[N+]([O-])c1ccc(C(c2sc3nc(-c4ccco4)nn3c2O)N2CCN(c3cccc(Cl)c3)CC2)cc1 (stereo unspecified),-9.4%
Cc1ccc(OCC(=O)Nc2nnc(SCc3cc(=O)c4ccccc4[nH]3)s2)cc1,-7.5%
CCOC(=O)c1[nH]c(C)c(CCC(=O)NCc2ccc(CC)cc2)c1C,-12.7%
COC(=O)c1sc2cccc(F)c2c1S(=O)(=O)NC(C)c1ccccc1 (stereo unspecified),-4.3%
O=C1/C(=C\c2cccs2)Sc2ccc3ccccc3c21,1.0%
Cc1cc(OCC(=O)Nc2ccncc2)cc(C)c1Cl,-6.2%
Cc1cc(C)n2nc(CC(=O)NCc3ccccc3Cl)nc2n1,-5.4%
CC(=O)Nc1sc(C)c(C)c1C(=O)OCC(=O)NCc1ccc(Cl)cc1,-3.1%
CN(C)CCN(C(=O)c1ccc(S(=O)(=O)N(C)c2ccccc2)cc1)c1nc2cc3c(cc2s1)OCO3,-8.4%
Cc1ccc(Nc2c(-c3ccc(C)s3)nc3ncccn23)cc1,-8.4%
CCc1ccc(NC(=O)C(=O)NNC(=O)COc2cccc(OC)c2)cc1,0.6%
COc1cc(NS(=O)(=O)c2c(C(=O)N3CCOCC3)c(C)n(C)c2C)cc(OC)c1OC,-5.6%
COc1ccc(/C=C/C(=O)NCC(=O)N/N=C(/C)c2ccco2)cc1,-5.4%
COc1ccc(S(=O)(=O)Nc2cccc(-c3ccc(N4CCCC4)nn3)c2)cc1F,-13.0%
COc1cc(OC)cc(C(=O)OCc2cc3ccccc3[nH]c2=O)c1,-6.7%
O=C(/C=C/c1ccccc1Cl)N1CCN(c2ncccn2)CC1,-4.1%
O=C(NCCc1ccccc1)c1ccc([N+](=O)[O-])cc1,-15.8%
CC(c1ccc(F)cc1)n1cc(S(=O)(=O)N2CCCC2)ccc1=O (stereo unspecified),-1.5%
CC(CO)NCC12CC3CC(CC(C3)C1)C2 (stereo unspecified),-9.6%

# Screening data: PubChem, National Center for Advancing Translational Sciences (NCATS)
